A549 viability: Nrf2 qHTS screen for inhibitors: counterscreen for cytotoxicity; A549 ARE-Fluc cells, CellTiter-Fluor viability, 18-24 h; Potency, µM (titrated, usually from 46 µM), inactives show at the top dose activity change, negative = cytotoxicity, most hits filed as inhibitors; hit rate 0.16% among 390,000; AID 504648, 2011; note: potency is the fitted concentration of half-maximal effect; % is set by controls: 0 for no effect and ±100 for the full control effect
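A549 ARE-Fluc cells in 5% FBS OPTI-MEM, 5000 cells/well, rested 2 h then exposed to compounds in concentration-response for 18-24 h at 37 °C. Viability by CellTiter-Fluor fluorescence (Ex 405/Em 525) after 30 min; luciferase luminescence (BugLite, 15 min, RT) read afterwards.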
ATXN2 expr inh: Primary qHTS for Inhibitors of ATXN expression. HEK-293 ATXN2-luciferase reporter, luminescence, 24 h. hit rate 0.72% among 360,000. Potency, µM (series often up to 57 µM), for inactives: top-dose activity change, negative = inhibition, actives largely listed as inhibitors; note: potency is the fitted concentration of half-maximal effect; % is set by controls: 0 for no effect and ±100 for the full control effect; nearly all actives have a fitted effect of over 55% in size
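qHTS (up to 57 uM final) was run with 24 h compound exposure of reporter cells at 37 °C. Each well was multiplexed: SteadyGlo luminescence measured ATXN2-luciferase expression after a fluorogenic Gly-Phe-AFC viability readout (25 uM final).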
HepG2 viability: qHTS for Inhibitors of TGF-b: Cytotox Counterscreen; hit rate 0.76% among 410,000; Potency, µM (top dose mostly 46.1 µM), without a hit: top-dose activity change, negative = cytotoxicity, most hits filed as cytotoxic; HepG2 CAGA-GFP viability, ATP luminescence, 18 h; note: potency is the fitted concentration of half-maximal effect; some results filed as inactive show a strong effect at the top dose
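CellTiter-Glo luminescence gave cytotoxicity after 18 hours at 37 degrees C. The cells were HepG2 CAGA-GFP in 1% FBS DMEM, stimulated with 500 pg/mL TGF-beta after compound addition. %Activity was normalised to no-cell wells (complete cell-killing) and DMSO (no toxicity), and curves were fitted and classified.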
Nrf2 inh: Nrf2 qHTS screen for inhibitors; hit rate 2.1% among 360,000; A549 ARE-Fluc reporter, luciferase luminescence, 18-24 h; Potency, µM (doses to about 46 µM), inactives show at the highest dose activity change, negative = inhibition, actives largely listed as inhibitors; note: potency is the fitted concentration of half-maximal effect; % is set by controls: 0 for no effect and ±100 for the full control effect; nearly all actives have a fitted effect of over 60% in size
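Concentration-response testing used A549 ARE_Fluc cells at 5000 cells/well. Following an 18-24 h compound incubation, viability was read by fluorescence (Ex 405/Em 525) and luciferase output by luminescence.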
ATXN viability: Viability Counterscreen for Primary qHTS for Inhibitors of ATXN expression. S2 cells (HEK-293 line with an ATXN2-luciferase reporter) viability, CellTiter-Fluor protease fluorescence, 24 h. Potency, µM (top dose mostly 56.7 µM), hits mostly cytotoxic. hit rate 0.49% among 400,000. AID 651635, 2014; note: potency is the fitted concentration of half-maximal effect; nearly all actives have a fitted effect of over 40% in size
Nrf2 ARE act: qHTS of Nrf2 Activators; AREc32 ARE-luciferase reporter (MCF7-derived line), luminescence, 24 h; Potency, µM (doses to about 46.1 µM), inactives show at the highest dose activation, actives largely listed as activators; hit rate 0.31% among 410,000; AID 624171, 2012; note: potency is the fitted concentration of half-maximal effect; % of control where 0% means no effect; nearly all actives have a fitted effect of over 65% in size
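AREc32_Fluc, 1000 cells/well, OPTI-MEM + 5% FBS, o/n 37 deg C 5% CO2; 23 nL cpd by pin tool, 24 hr; Steady-Glo 30 min RT, luminescence.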
TGFb SMAD3 inh: qHTS for Inhibitors of TGF-b; HepG2 CAGA-GFP TGF-b/SMAD3 reporter, GFP fluorescence, 18 h; TGF-beta stimulated, 500 pg/mL final; Potency, µM (top dose mostly 46.1 µM), for the others: at the top dose activity, negative = inhibition, actives largely listed as inhibitors; hit rate 1.2% among 410,000; note: potency is the fitted concentration of half-maximal effect; % is set by controls: 0 for no effect and ±100 for the full control effect; nearly all actives have a fitted effect of over 65% in size
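Per well, imaged GFP fluorescence of HEPG2 CAGA-GFP cells gives the signal; cells get compound, then TGF-beta (500 pg/mL final), 18 h at 37 degrees C; %Activity versus -TGF-beta and +DMSO controls.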
IL-2 act: qHTS of IL-2 Activators | hit rate 0.065% among 360,000 | activation, % (series mostly up to about 46 µM) | IL-2 activation reporter assay, cell-based qHTS; stimulated with anti-CD3/CD4/CD28 beads; in transgenic mouse T cells; in the data active = activation above about 50%; inconclusive = mostly about 30% to 49%; note: 0% is about no effect
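Using fluorescent plate cytometry, EGFP and DsRed are detected in transgenic mouse T cells stimulated 18 h at 37 degrees C with antibody-coated beads after 60 min compound pretreatment.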
* marks the source's active call; other numbers are inactive results; [ ] = another dose, or the depositor's remark. Unless noted, calls come from the whole dose curve; as a rule, active = well fitted curve in the direction sought with a large enough effect; inconclusive = small, poorly fitted or top-dose-only effect, or another doubt; inactive = no such curve, though single readings can be large; an effect the other way counts as inactive or inconclusive. These rows are one share of the data, so the mix of outcomes need not match the whole.

Cc1ncccc1C(=O)N1CCCC(CNC(=O)C2(c3ccc(Cl)cc3)CC2)C1 (stereo not drawn) was read as A549 viability -4.7%, HepG2 viability 1.7%, Nrf2 inh 9.7%, ATXN viability inactive, Nrf2 ARE act -0.2%, TGFb SMAD3 inh 4.5% and IL-2 act 0.2.
`O=C(COc1ccc(Br)cc1Cl)c1ccc[nH]1` gave A549 viability 2.6%, ATXN2 expr inh 55.9%[activator], HepG2 viability 4.5%, Nrf2 inh 27.4%, ATXN viability inactive, Nrf2 ARE act 7.1%, TGFb SMAD3 inh 3.6% and IL-2 act -0.1.
CC[C@@H]1C=C(C(=O)O)[C@H](c2ccc(Cl)c(Cl)c2)N1S(=O)(=O)c1ccc(C)cc1 was read as A549 viability -0.2%, ATXN2 expr inh 4.4%, HepG2 viability -4.7%, Nrf2 inh -16.6%, ATXN viability inactive, Nrf2 ARE act -0.1%, TGFb SMAD3 inh 0.9% and IL-2 act 0.0.
Cc1ccc2[nH]c(=O)c(C(c3nnnn3Cc3ccccc3)N3CCc4ccccc43)cc2c1 (stereo not drawn) was read as A549 viability inconclusive, ATXN2 expr inh 15.7%, HepG2 viability -26.8%, Nrf2 inh inconclusive, ATXN viability inactive, Nrf2 ARE act 0.9%, TGFb SMAD3 inh -25.8% and IL-2 act 7.1.
Screening COc1ccc(C2=NCCn3c2c2ccc(C(F)(F)F)cc2[n+]3[O-])cc1 returned A549 viability -11.8%, ATXN2 expr inh 13.8%, HepG2 viability -15.7%, Nrf2 inh 5.8%, ATXN viability inactive, Nrf2 ARE act 4.6%, TGFb SMAD3 inh -5.1% and IL-2 act -0.4.
Screening C/C(=N\NC(=O)c1ccc(NS(=O)(=O)c2cccs2)cc1)c1ccncc1 returned A549 viability -11.1%, ATXN2 expr inh -6.8%, HepG2 viability -2.1%, Nrf2 inh 6.4%, ATXN viability inactive, Nrf2 ARE act -0.4%, TGFb SMAD3 inh 4.3% and IL-2 act 1.5.
CC(=O)N1CCCN(Cc2nc(C3(c4ccc(C)cc4)CCCC3)no2)CC1 was read as A549 viability -0.3%, ATXN2 expr inh 3.2%, HepG2 viability -11.6%, Nrf2 inh 2.2%, ATXN viability inactive, Nrf2 ARE act -0.3%, TGFb SMAD3 inh -2.0% and IL-2 act 0.0.
COc1ccc(S(=O)(=O)Nc2ccccc2OC)cc1NC(=O)Cc1cccs1 was read as A549 viability 9.6%, ATXN2 expr inh 9.5%, HepG2 viability -23.8%, Nrf2 inh 8.6%, ATXN viability inactive, Nrf2 ARE act -1.0%, TGFb SMAD3 inh 0.0% and IL-2 act 0.1.
For CC(=O)c1ccc(Oc2nc(-c3cccnc3)nc3ccccc23)cc1 the results were A549 viability 4.8%, ATXN2 expr inh -20.8%, HepG2 viability 3.8%, Nrf2 inh 1.2%, ATXN viability inactive, Nrf2 ARE act 0.6%, TGFb SMAD3 inh 1.1% and IL-2 act 0.0.
Screening Cc1ccc(C)c(NCCCCC(=O)O)c1 returned ATXN2 expr inh 1.1%, HepG2 viability 2.5%, ATXN viability inactive, Nrf2 ARE act -0.1%, TGFb SMAD3 inh 19.4% and IL-2 act -0.3.
For O=[N+]([O-])c1ccc(S(=O)(=O)Nc2nc3ccccc3nc2Nc2ccccc2)cc1 the results were A549 viability -8.0%, ATXN2 expr inh inconclusive, HepG2 viability 0.7%, Nrf2 inh inconclusive, ATXN viability inconclusive, Nrf2 ARE act 3.7%, TGFb SMAD3 inh inconclusive and IL-2 act -0.8.
For COC(=O)c1ccc2nc(-c3ccc(Cl)cc3)c(Cc3ccccc3OC)n2c1 the results were ATXN2 expr inh 43.5%[activator], HepG2 viability 5.6%, ATXN viability inactive, Nrf2 ARE act 9.8%, TGFb SMAD3 inh -11.8% and IL-2 act 0.0.
`Cc1ccc(CN(Cc2ccco2)C(=O)c2ccco2)cc1` gave A549 viability 2.3%, ATXN2 expr inh 14.0%, HepG2 viability -18.8%, Nrf2 inh -1.7%, ATXN viability inactive, Nrf2 ARE act -0.2%, TGFb SMAD3 inh -13.8% and IL-2 act -3.2.
Screening O=C(O)c1cccnc1Sc1ccccc1 returned A549 viability 3.9%, ATXN2 expr inh 1.2%, HepG2 viability -21.9%, Nrf2 inh 18.4%, ATXN viability inactive, Nrf2 ARE act -1.5%, TGFb SMAD3 inh -21.2% and IL-2 act 0.9.
`CCOCCCNC(=O)NC12CC3CC(CC(C3)C1)C2` gave A549 viability 18.9%, ATXN2 expr inh 22.0%, HepG2 viability -34.1%, ATXN viability inactive, Nrf2 ARE act 0.4%, TGFb SMAD3 inh -12.1% and IL-2 act 2.1.
Screening CCOc1cc(C)c(S(=O)(=O)N2CCCC2)cc1C returned A549 viability -9.9%, ATXN2 expr inh -8.5%, HepG2 viability -10.5%, Nrf2 inh -1.4%, ATXN viability inactive, Nrf2 ARE act -0.9%, TGFb SMAD3 inh 2.0% and IL-2 act -2.5.
`COc1ccc(Cl)cc1NC(=O)COC(=O)c1ccc(Cl)nc1` gave A549 viability 3.1%, ATXN2 expr inh 4.8%, HepG2 viability -10.3%, Nrf2 inh 4.6%, ATXN viability inactive, Nrf2 ARE act inconclusive, TGFb SMAD3 inh -5.2% and IL-2 act -0.4.
`CCN1CCCC1CNS(=O)(=O)c1ccc(F)c(Cl)c1` (stereo not drawn) gave A549 viability 5.7%, ATXN2 expr inh 1.4%, HepG2 viability -7.0%, Nrf2 inh 3.3%, ATXN viability inactive, Nrf2 ARE act 0.4%, TGFb SMAD3 inh 0.0% and IL-2 act -0.3.
`COc1ccc(NC(=O)CCNC(=O)C2CCN(S(=O)(=O)c3ccc(OC)cc3)CC2)cc1` gave A549 viability 1.8%, ATXN2 expr inh -3.7%, HepG2 viability 4.3%, Nrf2 inh 13.6%, ATXN viability inactive, Nrf2 ARE act 0.1%, TGFb SMAD3 inh 8.4% and IL-2 act -0.8.
For O=C(Cn1cnc2sc3c(c2c1=O)CCCC3)NCC(=O)Nc1c(F)cc(F)cc1Br the results were A549 viability 6.2%, ATXN2 expr inh 7.6%, HepG2 viability 1.6%, Nrf2 inh inconclusive, ATXN viability inactive, Nrf2 ARE act 0.2%, TGFb SMAD3 inh 10.7% and IL-2 act -4.6.
For CC1CCCN(C2(O)C(=O)Nc3ccc(Br)cc32)C1 (stereo not drawn) the results were A549 viability -8.3%, HepG2 viability -4.9%, Nrf2 inh -8.0%, ATXN viability inactive, Nrf2 ARE act 0.1%, TGFb SMAD3 inh -14.5% and IL-2 act -0.5.
`Cc1ccc(C2N(c3cccc(Cl)c3)C(=O)N3CCCN23)cc1` (stereo not drawn) gave A549 viability -0.8%, HepG2 viability 0.5%, Nrf2 inh 0.0%, ATXN viability inactive, Nrf2 ARE act 2.8%, TGFb SMAD3 inh 1.5% and IL-2 act -0.2.
Screening O=C(Cn1nc(-c2ccccc2)nc1-c1ccccc1)OC1CCCCC1 returned A549 viability -7.2%[1.84 µM], ATXN2 expr inh -5.2%, HepG2 viability -21.2%, Nrf2 inh -16.5%, ATXN viability inactive, Nrf2 ARE act 0.4%, TGFb SMAD3 inh -30.2% and IL-2 act -1.1.
Screening COCCn1nnnc1C(c1cc2cc(C)ccc2[nH]c1=O)N1CCc2ccccc21 (stereo not drawn) returned A549 viability -11.6%, ATXN2 expr inh 0.0%, HepG2 viability -0.3%, Nrf2 inh 3.6%, ATXN viability inactive, Nrf2 ARE act 0.4%, TGFb SMAD3 inh -24.0% and IL-2 act -2.4.
Cc1ccc(S(=O)(=O)N2[C@@H](c3ccc(C#N)cc3)C(C(=O)O)=C[C@H]2CC2CCCC2)cc1 was read as A549 viability 0.7%, ATXN2 expr inh -2.3%, HepG2 viability -6.9%, Nrf2 inh -10.2%, ATXN viability inconclusive, Nrf2 ARE act 0.7%, TGFb SMAD3 inh inconclusive and IL-2 act 0.8.
For CCc1ccc(NCc2cc3c(C)nn(-c4ccccc4)c3[nH]c2=O)cc1 the results were A549 viability -7.7%, ATXN2 expr inh -6.4%, HepG2 viability -24.7%, Nrf2 inh 10.3%, ATXN viability inactive, Nrf2 ARE act 0.1%, TGFb SMAD3 inh -33.2% and IL-2 act -0.3.
For O=C(Nc1ccncc1)c1ccccc1F the results were A549 viability -13.7%, ATXN2 expr inh 7.7%, HepG2 viability -40.8%, Nrf2 inh inconclusive, ATXN viability inactive, Nrf2 ARE act -0.7%, TGFb SMAD3 inh -2.2% and IL-2 act 0.0.
For CC1CC(C)CN(C(=O)COC(=O)c2ccc(S(=O)(=O)N(C)c3ccccc3)cc2)C1 (stereo not drawn) the results were A549 viability 21.4%, HepG2 viability 1.3%, Nrf2 inh -3.2%, ATXN viability inactive, Nrf2 ARE act 0.0%, TGFb SMAD3 inh 0.0% and IL-2 act 2.3.
`Cc1nc2ccc(C(=O)O)cc2nc1C` gave A549 viability 0.6%, ATXN2 expr inh 3.6%, HepG2 viability 22.8%, Nrf2 inh 8.6%, ATXN viability inactive, Nrf2 ARE act 0.2%, TGFb SMAD3 inh 0.0% and IL-2 act 0.9.
CC1(C)Cc2ccccc2C(/C(=N/O)C(N)=O)=N1 was read as A549 viability 3.8%, ATXN2 expr inh -20.1%, HepG2 viability 0.2%, Nrf2 inh 5.3%, ATXN viability inactive, Nrf2 ARE act 0.3%, TGFb SMAD3 inh 31.5%[activator] and IL-2 act 0.5.
Screening CC(=O)Nc1nnc(CCN2CCCCC2)s1 returned A549 viability -1.0%, ATXN2 expr inh 6.4%, HepG2 viability 18.8%, Nrf2 inh -10.6%, ATXN viability inactive, Nrf2 ARE act -0.4%, TGFb SMAD3 inh 11.3% and IL-2 act -0.9.
Cc1ccc(NC(=O)N2CCCC2C(=O)Nc2c(C)cc(C)cc2C)cc1 (stereo not drawn) was read as A549 viability -7.2%, ATXN2 expr inh 1.2%, HepG2 viability -5.5%, Nrf2 inh 5.5%, ATXN viability inactive, Nrf2 ARE act -0.8%, TGFb SMAD3 inh -5.3% and IL-2 act -0.5.

Screening results (PubChem BioAssay)
